Screening results as filed in PubChem BioAssay.
RecA intein inh – Mtb RecA intein splicing inhibition; P9WHJ3; cell-free RecA intein splicing, fluorescence; inhibition, %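 (about 9 µM by stock and volumes)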; 290,000 tested, 0.75% active; AID 2221; in the data active means inhibition above about 30%; inconclusive means no clear call, values can overlap the other calls;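 further: 0% = vehicle wells and 100% = reference inhibitor control wells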
Target sequence (P9WHJ3 whole entry, looked up): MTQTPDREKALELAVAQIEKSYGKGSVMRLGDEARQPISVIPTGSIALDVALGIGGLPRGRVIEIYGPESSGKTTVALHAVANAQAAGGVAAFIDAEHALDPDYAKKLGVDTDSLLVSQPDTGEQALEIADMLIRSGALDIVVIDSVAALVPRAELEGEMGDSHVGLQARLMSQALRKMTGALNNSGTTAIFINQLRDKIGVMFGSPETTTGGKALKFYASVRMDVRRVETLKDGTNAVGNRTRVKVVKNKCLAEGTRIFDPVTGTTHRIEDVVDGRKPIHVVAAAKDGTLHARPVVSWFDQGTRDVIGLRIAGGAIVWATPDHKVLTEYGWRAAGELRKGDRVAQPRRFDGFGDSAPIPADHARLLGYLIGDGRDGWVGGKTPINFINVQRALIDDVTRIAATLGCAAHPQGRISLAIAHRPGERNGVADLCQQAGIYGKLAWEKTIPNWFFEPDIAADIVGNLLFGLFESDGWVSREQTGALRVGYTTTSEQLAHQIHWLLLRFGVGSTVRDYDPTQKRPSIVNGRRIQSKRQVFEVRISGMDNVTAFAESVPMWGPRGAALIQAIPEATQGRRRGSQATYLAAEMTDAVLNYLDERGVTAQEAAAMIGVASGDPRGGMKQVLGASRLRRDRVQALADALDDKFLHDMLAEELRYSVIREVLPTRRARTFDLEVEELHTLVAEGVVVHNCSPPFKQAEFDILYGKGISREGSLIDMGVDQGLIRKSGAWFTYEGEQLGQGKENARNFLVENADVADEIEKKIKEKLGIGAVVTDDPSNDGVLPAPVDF
Mtb growth – M. tuberculosis H37Rv growth inhibitors, H37Rv strain (AID 1626); M. tuberculosis H37Rv growth inhibition; higher % means a stronger effect; 220,000 tested, 0.95% active; inhibition, % at 10 µM; hits with a dose series show IC50 in µM;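 active means confirmed in a dose series; inconclusive means inhibition above 80% but not taken into the dose series; inactive means below 80% or under 30% at every dose of the series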;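 further: bacteria incubated seven days before Alamar blue readout; 0% = bacteria only wells and 100% = bacteria with antibiotic wells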
Arbovirus inh – antivirals against arbovirus infection. arbovirus infection cell-based antiviral screen. 200,000 tested, 0.37% active. AID 1251. inhibition, % at 10 µM;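 active means inhibition from about 30%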;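 further: bluetongue infection of BSR cells; cell survival read as ATP light after 72 h; 0% = infected wells without compound and 100% = uninfected wells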
YopH inh – inhibitors of Yersinia enterocolitica YopH tyrosine phosphatase; fluorescence Ex485/Em525; inhibition, %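 (about 10 µM by stock and volumes)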; 140,000 tested, 0.16% active;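 active means inhibition of 50% or more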;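 further: controls were vehicle for no effect and minimum signal wells for full effect; inactives centre near -20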
Mtb betalactam – beta-lactam sensitization of Mtb H37Rv; 330,000 tested, 0.27% active; inhibition, % at 25 µM; M. tuberculosis H37Rv growth with meropenem, percent inhibition; hits of this screen are not shown here;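 active means about 74% or more and at least 40 points above the plate without the antibiotic, then above 30% in a dose series; inconclusive means first-round hits that could not be retested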;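 further: growth measured after seven days incubation then overnight dye step; 0% = bacteria only wells and 100% = bacteria with antibiotic; twin plates without the antibiotic show which effects depend on it; some results filed as inactive read as strong as hits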
Arbovirus inh repeat – recorded beside Arbovirus inh, whose call it bears; inhibition, %; measured here: 10K subset replicate screen; many hits read low in the repeat;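 first of two repeat runs on a subset; 0% = infected and 100% = uninfected wells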
Numbers without * were called inactive; ? = inconclusive; . = not tested or not shown.

SMILES | RecA intein inh | Mtb growth | Arbovirus inh | YopH inh | Mtb betalactam | others
Cc1ccccc1NC(=O)c1cccc(NC(=O)CCC(=O)O)c1 | 0.5 | 0% | 11 | . | -3
O=C(c1cc2ccccc2[nH]1)N1CCOCC1 | -1.5 | -5% | 3 | -7 | -7
Cc1cc(NC(=O)CSc2nc(=O)n(CCN(C)C)c3c2CCCC3)no1 | 1.6 | . | . | . | -5
Cc1ccc(NCC(=O)NNC2=NCCC2)c(C)c1 | -3.0 | 8% | -1 | -20 | -5
COc1cccc(-n2c(N)c(C#N)c3ccc([N+](=O)[O-])cc3c2=O)c1 | -4.9 | 48% | -1 | -14 | 26
CCOC(=O)C1=C(c2ccccc2)OC(N)=C(C#N)C1c1ccc(Br)s1 (stereo not given) | 5.0 | -6% | 10 | -31 | 3
Cc1ccc(CCN2CC(C(=O)NCCCN3CCC(C)CC3)CC2=O)cc1 (stereo not given) | -0.9 | . | . | . | 1
O=C(N/N=C/c1cccc([N+](=O)[O-])c1)c1cc(-c2ccc3c4c(cccc24)CC3)n[nH]1 | 1.0 | 5% | -2 | -18 | -1
Cc1ccccc1-c1nnc(SCC(=O)NC2CCCC2)o1 | 1.6 | . | . | . | 6
O=C(NCCO)c1cc2c([nH]c3ccccc32)c(-c2ccc(F)cc2)n1 | 3.3 | . | . | . | -1
C/C(CCc1ccco1)=N\NC(=O)CNc1cccc2ccccc12 | 0.5 | 3% | 2 | . | 4
O=C(CNc1ccc(F)cc1)N/N=C/C1CC=CCC1 (stereo not given) | -1.3 | -7% | -2 | . | 5
CC(C)Cc1c(O)nc(SCCN2CCOCC2)[nH]c1=O | -0.9 | -1% | 7 | 1 | -3
C=CCNC(=O)Cn1nc(-c2ccccc2)ccc1=O | -0.9 | 0% | -1 | -17 | -6
Cc1cc(SCc2cccc([N+](=O)[O-])c2)nc(=O)[nH]1 | 1.5 | . | . | . | 4
Cc1nn2c(N3CCN(C(=O)c4ccco4)CC3)cc(C(C)(C)C)nc2c1-c1ccccc1 | 12 | 33% | 6 | -42 | 36
CCOc1ccccc1N(CC(=O)NC(C)(C)C)C(=O)c1ccc(CN2CCOCC2)o1 | 0.7 | -15% | 0 | 9 | -3
CCOC(=O)c1ccc(N2C(=O)CC(N3CCC(Nc4ccc(F)cc4)CC3)C2=O)cc1 (stereo not given) | 0.8 | -5% | 6 | 6 | -8
S=C1NCCOCCOCCOCCOCCNC(=S)NCCOCCOCCOCCOCCN1 | -9.0 | -1% | 4 | -12 | 3
Cc1ccc2c(CN3CCC(C)CC3)cc(=O)oc2c1 | 2.7 | 6% | -4 | 12 | -5
COc1ccc(/C=C2/NC(=O)N(Cc3ccccc3F)C2=O)cc1OC | -2.7 | 10% | -18 | . | -10
O=[N+]([O-])c1ccc2nn(Cc3ccccc3)cc2c1 | 1.8 | . | . | . | -5
O=S(=O)(NCC(c1ccco1)N1CCN(c2ccc(F)cc2)CC1)c1ccc(F)cc1 (stereo not given) | -1.3 | -3% | 3 | -13 | -3
CSc1cccc(NC(=O)c2cc(S(=O)(=O)N3CCc4ccccc43)cn2C)c1 | -4.6 | . | . | . | 1
CC(C)Cc1nnc(NS(C)(=O)=O)s1 | -3.6 | -14% | 1 | -36 | 14

Reprinted from the part before: 4 entries, followed by the next part.
SMILES | RecA intein inh | Mtb growth | Arbovirus inh | YopH inh | Mtb betalactam | others
O=[N+]([O-])c1ccc2nn(Cc3ccccc3)cc2c1 | 1.8 | . | . | . | -5
O=S(=O)(NCC(c1ccco1)N1CCN(c2ccc(F)cc2)CC1)c1ccc(F)cc1 (stereo not given) | -1.3 | -3% | 3 | -13 | -3
CSc1cccc(NC(=O)c2cc(S(=O)(=O)N3CCc4ccccc43)cn2C)c1 | -4.6 | . | . | . | 1
CC(C)Cc1nnc(NS(C)(=O)=O)s1 | -3.6 | -14% | 1 | -36 | 14
CCC(C)NC(=O)C1CCN(S(=O)(=O)c2cc([N+](=O)[O-])ccc2Cl)CC1 (stereo not given) | 2.6 | 0% | . | . | -9
O=C1COc2ccccc2N1Cc1c(F)cccc1Cl | -1.6 | . | . | . | 6
CC(C)C(=O)NC(=S)Nc1ccccc1N1CCN(C(=O)c2ccc(Cl)cc2)CC1 | -2.3 | 4% | 12 | . | -7
O=C(CCN1CCCCCC1)Nc1ccc(F)cc1 | -0.5 | 1% | 7 | -34 | -8
Cc1ccc(/C=C/C(=O)Nc2nc3ccccc3[nH]2)cc1 | -4.9 | 11% | -9 | -27 | 55
CCc1nc(OCCN(C)C)c2oc3ccccc3c2n1 | -10.0 | -1% | 11 | -24 | 11
COc1ccc(N2CCN(C(c3cccs3)c3nnnn3C3CCCC3)CC2)cc1 (stereo not given) | 3.1 | 1% | -12 | -22 | 9
CCC(C)NC(=O)c1cn(CC)c2ccc(S(=O)(=O)N3CCCCC3)cc2c1=O (stereo not given) | -1.9 | . | . | . | 5
O=C(c1nc(-c2ccccc2)n(-c2ccccc2)n1)N1CCCCCC1 | 0.5 | -2% | -14 | -40 | -1
CCNC(=S)N(C)CCc1cc2c(c(OC)c1C=C1C(=O)N(C)C(=O)N(C)C1=O)OCO2 | -1.2 | 1% | . | . | -2
CCOc1ccc(S(=O)(=O)N2CCC(C(=O)N3CCN(C)CC3)CC2)cc1Cl | 0.2 | . | . | . | 3
CC(=O)Oc1oc(-c2ccccc2)nc1/C=N/c1ccccn1 | 0.2 | -7% | 1 | -48 | 3
COc1ccccc1NC(=O)c1c[nH]c2ccccc12 | 3.1 | . | . | . | 0
COC(=O)c1cccc(NC(=O)c2ccc3c(c2)C(=O)N(Cc2cccnc2)C3=O)c1C | 0.1 | . | . | . | 1
O=C(NC1=NCCS1)c1csc2ccccc12 | -1.0 | -4% | -3 | -34 | 19 | Arbovirus inh repeat=-2
O=C(CN1C(=O)S/C(=C\c2cc(Cl)c(O)c(Cl)c2)C1=O)Nc1ccccc1 | -110 | . | . | . | -4
Cc1ccc(C)c(Nc2c(F)c(F)c(F)c(F)c2C(=O)O)c1 | -0.7 | 3% | 27 | . | -5
COCc1[nH][nH]c(=O)c1C=Nc1ccccc1 | -2.0 | . | 2 | -2 | -8
CCCc1c(C(=O)N/N=C/c2ccc(C)s2)nnn1-c1nonc1N | 0.4 | . | . | . | 6
Fc1cccc(Cl)c1/C=N/Nc1ccccn1 | 1.5 | 3% | 0 | . | 5
Cc1ccc(C)c(NC(=O)C(Sc2nnc(-c3cccs3)o2)c2ccccc2)c1 (stereo not given) | . | 4% | -2 | -5 | 11
COc1ccc(Cc2n[nH]c(=S)o2)cc1 | -1.6 | -4% | -9 | . | -6
O=c1[nH]c(CSc2nnc(-c3ccccc3)n2-c2ccccc2)nc2ccccc12 | . | -2% | 4 | -8 | -9
Cc1ccc2cc(CN(c3ccccc3)S(=O)(=O)c3ccccc3)c(=O)[nH]c2c1 | 4.0 | -9% | . | . | -6
CCCCOc1ccc(N=Cc2ccc[nH]2)cc1 | 4.0 | . | . | . | 98
(list continues)
SMILES | RecA intein inh | Mtb growth | Arbovirus inh | YopH inh | Mtb betalactam | others
Cc1nc2sc(C(c3cccs3)N3CCN(Cc4ccccc4)CC3)c(O)n2n1 (stereo not given) | -6.1 | 3% | 9 | . | 1 | Arbovirus inh repeat=4
O=C(O)CCNC(=O)c1ccc(NC(=O)C(c2ccccc2)c2ccccc2)cc1 | -2.2 | . | . | . | -1
Nc1ncnc2nc(SCCC(=O)O)[nH]c12 | 0.3 | -1% | . | . | -5
Cc1c(C2Nc3ccccc3C(=O)N2O)cnn1C (stereo not given) | -3.6 | -8% | 3 | -35 | 3
CCP(=S)(CC)c1ccc(N(C)C)cc1 | 0.1 | -6% | 5 | . | -1
CCCCC(=O)NC(c1ccco1)c1cc(Cl)c2cccnc2c1O (stereo not given) | 3.0 | -7% | -26 | . | 0
N/C(=N\O)C1COc2ccccc2O1 (stereo not given) | -0.9 | 3% | -1 | -26 | 7
COc1ccccc1-c1ccc(/C=N/O)o1 | -0.6 | 1% | . | . | -8
Cc1nc2sc(C(c3ccc(F)cc3)N3CCOCC3)c(O)n2n1 (stereo not given) | 1.6 | -9% | 1 | -21 | -12
CC(C(=O)Nc1ccccc1-c1ccccc1)N1CCN(C(=O)c2ccccc2)CC1 (stereo not given) | 5.4 | 3% | . | . | -6
COc1cc(S(=O)(=O)N2CCOCC2)ccc1NC(=O)COC(=O)C12CC3CC(CC(C3)C1)C2 | -0.9 | 8% | 0 | -25 | -9
COCCNC(=O)CCCn1c(=O)c2ccccc2n(Cc2ccccc2C#N)c1=O | -2.2 | . | . | . | 5
Cc1cc(SCC(=O)OC/C(O)=C(\C#N)c2nc3ccccc3[nH]2)c(C)cc1Br | -1.2 | 9.1µM* | -30 | . | 97
COc1ccc(C(=O)OCc2cc3cccc(C)c3[nH]c2=O)cc1 | 0.7 | 0% | -6 | -10 | 0
CC(C)NC(=O)c1ccccc1NC(=O)CS(=O)(=O)Cc1ccccc1 | . | 2% | 4 | -16 | -1
COc1cccc(C(=O)NCC(=O)NNc2ncnc(N)c2[N+](=O)[O-])c1 | -1.2 | -10% | 1 | . | 4
CCOC(=O)c1cnc(SC)nc1Sc1ccccc1Cl | 20 | -2% | 4 | -37 | -3
O=C(NCC(c1cccs1)N1CCOCC1)c1ccc(Br)o1 (stereo not given) | 2.8 | 3% | -13 | -11 | 3
COc1ccc(/C=C/C(=O)O)cc1S(=O)(=O)NC1CCS(=O)(=O)C1 (stereo not given) | 2.6 | -7% | 16 | . | 1
CC(C)(CNC(=O)CO/N=C1/C=C2CCC3C(C(O)C[C@@]4(C)C3CC[C@]4(O)C(=O)CO)[C@@]2(C)CC1)C(O)C(=O)O (stereo not given in full) | -0.3 | . | . | . | ?
COCCOC(=O)C1=C(C)NC(=O)NC1c1cccc2ccccc12 (stereo not given) | -3.9 | . | . | . | 0
O=C(CNS(=O)(=O)c1cccs1)NCCc1ccc(Cl)cc1 | 1.2 | . | . | . | -1
Clc1cccc(NCc2nnc(SCc3ccccc3)o2)c1 | 2.0 | 6% | -12 | -16 | -6
CCCCOC(=O)c1ccc(OC(=O)c2cccnc2)cc1 | 29 | 7µM* | -3 | -45 | 97
CCN(CC)/C(Sc1ccccc1)=C(/C(Cl)=C(Cl)Cl)[N+](=O)[O-] | 10 | -8% | -25 | . | 5
(cont.)
SMILES | RecA intein inh | Mtb growth | Arbovirus inh | YopH inh | Mtb betalactam | others
O=C(NCCc1nnc2ccc(N3CCCCCC3)nn12)c1ccccc1 | 2.8 | . | . | . | 2
O=C(COC(=O)CNS(=O)(=O)c1ccc(Br)cc1Cl)NC1CC1 | -0.2 | . | . | . | -9
CCCCCn1c(CNC(=O)CC)nc2ccccc21 | 3.2 | 7% | 5 | -30 | 2 | Arbovirus inh repeat=0
O=C1/C(=C/c2ccc(F)cc2)SC(=S)N1CCCC(=O)N1CCCCC1CCO (stereo not given) | 27 | . | . | . | 68
CCOc1cc(/C=N/NC(=O)c2nnn(-c3nonc3N)c2C)ccc1OCc1ccc(F)cc1 | -3.2 | . | . | . | 2
CCN(CC)S(=O)(=O)c1ccc(NC(=O)c2nc3nc(C)cc(C)n3n2)cc1 | -4.3 | -1% | . | . | -7
CCOC(=O)c1c(-c2ccccc2)nnn1-c1nc(OC)nc(N2CCOCC2)n1 | 0.4 | -5% | -2 | -10 | 1
CCOC(=O)C1CCN(c2c(Nc3cc(C)cc(C)c3)c(=O)c2=O)CC1 | 0.6 | 5% | . | . | 1
CCC(C)N1CCN(S(=O)(=O)Cc2ccccc2)CC1 (stereo not given) | 0.6 | . | . | . | -1
S=C1NCCOCCNC(=S)NCCOCCOCCN1 | . | -2% | 2 | . | 1
COc1cc2c(cc1OC)CN(C(=O)COc1ccc(C)c(C)c1)CC2 | 5.8 | 1% | -2 | -51 | -3
O=[N+]([O-])c1ccc(CNC2CCCc3ccccc32)cc1 (stereo not given) | -6.7 | 5% | -19 | . | -1
FC(F)(F)c1ccccc1NC(=S)Nc1cccc(Cl)c1 | 5.0 | 12% | 15 | . | 10
O=C1c2ccccc2C(=O)N1c1cc([N+](=O)[O-])ccn1 | -5.9 | . | . | . | -4
Clc1ccc(OCCCn2ccnc2)c(Br)c1 | 0.9 | 78% | 0 | -15 | 69
CC(=O)N[C@@H](C)C(=O)OC(C)C(=O)Nc1cccc([N+](=O)[O-])c1 (stereo not given in full) | . | -1% | 0 | . | .

Not a retest: an excerpt of the list.
SMILES | RecA intein inh | Mtb growth | Arbovirus inh | YopH inh | Mtb betalactam | others
O=C(NCCc1nnc2ccc(N3CCCCCC3)nn12)c1ccccc1 | 2.8 | . | . | . | 2
O=C(COC(=O)CNS(=O)(=O)c1ccc(Br)cc1Cl)NC1CC1 | -0.2 | . | . | . | -9
CCCCCn1c(CNC(=O)CC)nc2ccccc21 | 3.2 | 7% | 5 | -30 | 2 | Arbovirus inh repeat=0

Not all compounds are listed. The share of hits here may be higher or lower than overall.
